Source: PubChem (several laboratories)
UCH37 inh: inhibitors of human UCH37 deubiquitinase, primary screen, biochemical, Ub-AMC cleavage, fluorescence | AID 588478, 2011 | purified proteasome/UCH37 | inhibition, % (no concentration beside the values) | 0.33% of 330,000 active | Ubiquitin carboxyl-terminal hydrolase isozyme L5 (Homo sapiens), Q9Y5K5;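 active = mean of two replicates above 20%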;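 note: 0% = compound-free wells with enzyme and 100% = wells lacking proteasome; stock transfer was 100 nL into about 20 µL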
Target sequence (Q9Y5K5 whole entry, looked up): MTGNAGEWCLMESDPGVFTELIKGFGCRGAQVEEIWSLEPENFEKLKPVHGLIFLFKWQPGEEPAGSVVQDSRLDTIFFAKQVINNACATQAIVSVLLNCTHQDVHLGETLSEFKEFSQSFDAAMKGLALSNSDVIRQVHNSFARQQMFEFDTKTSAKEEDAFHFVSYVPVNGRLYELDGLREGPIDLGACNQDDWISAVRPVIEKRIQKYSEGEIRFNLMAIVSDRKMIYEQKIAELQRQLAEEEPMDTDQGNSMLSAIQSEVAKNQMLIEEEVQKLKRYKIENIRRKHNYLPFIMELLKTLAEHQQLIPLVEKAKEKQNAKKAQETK
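Schedule: 30 min plus 25 min, room temperature / Material: human UCH37 within purified proteasomes / Technique: AMC fluorescence intensity at 355/460 nm / Buffer or medium: pH 7.4 Tris-HCl (50 mM) with ovalbumin, ATP-MgCl2, DTT / Controls: wells without proteasome as full block, compound-free enzyme plus substrate as uninhibited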
B2AR ag: beta2AR agonists driving receptor internalization, primary screen, cell-based, FAP fluorogen, flow cytometry. Beta-2 adrenergic receptor (Homo sapiens), P07550. Am2.2-beta2AR cells; reference of the scale not given here. response, % (test concentration not listed). 0.43% of 340,000 active. AID 504454, 2011;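 active = response above a set limit, near 3 SD of response in nonfluorescent compounds, cut at about 42% in these data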;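 note: stock transfer was 100 nL into about 11 µL; a reference agonist was the positive control; negative values mostly stem from fluorescent compounds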
HNF4A DNA FP: change in binding of human HNF4A to DNA, primary screen, biochemical, fluorescence polarization, FITC-DNA; Hepatocyte nuclear factor 4-alpha (Homo sapiens), P41235; 1 h; activity change, % at 10 µM; 0.3% of 360,000 active; AID 1224865, 2016; in the data active = activity change above about 30%, passing the limit was not always enough;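 note: controls were the assay level and a saturating level of protein; the project sought stronger binding though the title names inhibitors; some compounds called inactive have numbers as strong as hits; positive values seem to mean higher polarization but the record does not say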
Target sequence (P41235 whole entry, looked up): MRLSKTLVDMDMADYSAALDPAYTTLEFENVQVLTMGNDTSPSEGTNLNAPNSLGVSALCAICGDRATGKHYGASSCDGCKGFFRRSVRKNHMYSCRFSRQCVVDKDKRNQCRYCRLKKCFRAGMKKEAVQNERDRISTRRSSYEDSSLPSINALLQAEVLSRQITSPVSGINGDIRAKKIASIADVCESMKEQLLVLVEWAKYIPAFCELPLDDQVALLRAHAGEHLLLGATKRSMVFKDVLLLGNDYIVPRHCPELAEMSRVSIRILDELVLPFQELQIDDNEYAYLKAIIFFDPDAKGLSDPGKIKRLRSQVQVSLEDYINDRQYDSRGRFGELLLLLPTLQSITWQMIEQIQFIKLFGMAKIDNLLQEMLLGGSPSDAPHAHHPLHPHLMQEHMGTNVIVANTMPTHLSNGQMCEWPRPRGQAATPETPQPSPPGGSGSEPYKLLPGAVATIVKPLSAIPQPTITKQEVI
FGF22 binding: binders of human FGF22 protein, primary screen, FGF22 synaptogenesis inhibitor project, biophysical, thermal shift, single point. Fibroblast growth factor 22 (Homo sapiens), Q9HCT0. recombinant FGF22 thermal shift, SYPRO orange fluorescence; percent of sucrose octasulfate shift, DMSO zero. calls only at 9.99 µM. 1.5% of 340,000 active;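 active = melting point raised past a set limit in the mean and every replicate; inconclusive = no clear call; three in four hits are not shown here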
Target sequence (Q9HCT0 whole entry, looked up): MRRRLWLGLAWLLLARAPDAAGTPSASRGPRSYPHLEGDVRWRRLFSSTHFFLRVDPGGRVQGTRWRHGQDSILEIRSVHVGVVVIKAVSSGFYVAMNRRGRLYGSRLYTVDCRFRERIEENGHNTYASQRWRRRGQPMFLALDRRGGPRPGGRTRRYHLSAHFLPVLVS
E coli growth: E. coli growth inhibition, primary screen, OD600. OD600 absorbance (test concentration not listed). Escherichia coli growth, 23 h; stronger effect = lower value. 0.21% of 330,000 active. AID 1053175, 2014;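 active = OD600 absorbance below the run mean of sample wells minus 3.6 SD, in any replicate, cut at about 0.56 in these data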;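 note: stock transfer was 300 nL into about 60 µL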
Ecoli rRNA inh: reduced GFP signal of wild-type E. coli, primary screen, bacterial rRNA inhibitor project, GFP/RFP fluorescence, OD600, single point; GFP signal change (wild-type ribosome), % (test concentration not listed); 1.6% of 350,000 active; E. coli WT GFP vs humanized-ribosome RFP mutants, 24 h; stronger effect = lower value; DMSO median 0, no signal -100;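 active = significant combined selectivity score with lowered wild-type GFP, culture density cut under 30%, mutant RFP and density less affected; inactive = any of these conditions unmet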; note: one replicate is shown; some compounds called inactive have numbers as strong as hits
ALR inh: inhibitors of human ALR sulfhydryl oxidase, primary screen, biochemical, H2O2 detection, HRP-luminol luminescence, single point | purified ALR, DTT oxidation | inhibition, % (concentration not given with the values) | 3.8% of 290,000 active | AID 485317, 2010;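 active = mean and each replicate at 75% or more; inconclusive = only one of the two met; inactive = neither met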;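 note: stock transfer was 7.5 nL into about 7.5 µL; 0% = neutral wells and 100% = wells with inactivated enzyme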
Ecoli rRNA inh OD600: recorded beside Ecoli rRNA inh, whose call it bears; OD600 change, %; measured here: OD600 growth;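 optical density of the mix in the first replicate; 0 = DMSO median and -100 = no signal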
Ecoli rRNA inh RFP: second read-out of Ecoli rRNA inh, no call of its own (marks repeat the call); RFP signal change, %; measured here: RFP humanized mutant strains;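 first replicate; 0 = DMSO median and -100 = no signal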
Active calls of the source: *; i = inactive; ? = inconclusive; · = not tested or not shown; + = active, no number. Some of the compounds tested. The share of hits here may be higher or lower than overall.

SMILES	UCH37 inh	B2AR ag	HNF4A DNA FP	FGF22 binding	E coli growth	Ecoli rRNA inh	Ecoli rRNA inh OD600	Ecoli rRNA inh RFP	ALR inh
CC(C)C(=O)NCCc1nc2ccccc2n1CCc1ccccc1	3.0	-8	-0.5	i	0.65	-5	-8	2.1	-3
COc1ccc(-c2[nH]nc3c2C2(C(=O)N(CC(=O)O)c4ccccc42)C(C#N)=C(N)O3)cc1OC (stereo not drawn)	-24	9	-0.3	i	0.69	-2	4	-2.0	-8
S=C(Nc1ccc(Cl)cc1)N1CCCCC1	2.7	2	0.1	·	0.67	·	·	·	-3
CCOc1cc(C2Nc3ccccc3NC3=C2C(=O)CC(C)(C)C3)ccc1OC(C)=O (stereo not drawn)	7.1	4	-1.0	i	0.68	5	0	6.9	59
CNS(=O)(=O)c1ccc2c3c(cccc13)C(=O)N2C	-268	-8	-4.1	i	0.69	9	1	-1.4	-6
Cc1ccc(C)c(C(=O)CSc2n[nH]c(C(C)C)n2)c1	6.4	4	-1.7	·	0.71	·	·	·	41
O=C(NCc1ccco1)c1ccc(N2CCCCC2)c([N+](=O)[O-])c1	-11	-1	-2.3	·	0.69	·	·	·	0
c1ccc(CN2CCCC3(CCCN(Cc4nc(COc5ccccc5)no4)C3)C2)cc1 (stereo not drawn)	0.3	3	1.4	·	0.7	·	·	·	-5
O=C(c1cccc(NC2=NC3CS(=O)(=O)CC3S2)c1)N1CCN(c2ncccn2)CC1 (stereo not drawn)	3.9	6	3.1	+	0.77	5	7	0.4	-1
Cc1ccccc1C(=O)NCCNc1ccc([N+](=O)[O-])cc1	3.4	-5	0.5	i	0.65	-17	-12	-2.9	-10
COc1ccc(C(=O)Nc2nnc(SCC(=O)Nc3ccc(NC(C)=O)cc3)s2)c(OC)c1	-5.9	-1	2.2	i	0.67	3	7	2.0	-4
CN(c1ccc(C(=O)Nc2cccc(O)c2)cc1)S(=O)(=O)c1ccccc1	-1.6	4	-1.2	i	0.69	-27	-22	-3.1	22
O=C(NC1CCCCC1)C(c1ccncc1)n1c(=O)c(-c2cc3ccccc3[nH]2)nc2ccccc21 (stereo not drawn)	·	·	-0.9	i	·	-22	-54	-4.1	·
COCCCNC(=O)CSC1=Nc2ccccc2C2=NC(CC(=O)NCc3ccccc3)C(=O)N12 (stereo not drawn)	-100	-5	-0.8	·	0.67	·	·	·	-7
O=C(c1ccc2c(c1)CCC2)N1CCN(Cc2c(F)cccc2Cl)CC1	·	·	-1.9	i	·	-3	-19	-0.2	·
COc1ccccc1CCNC(=O)C(=O)NCC1OCCCN1S(=O)(=O)c1cc(C)ccc1C (stereo not drawn)	4.1	-5	1.5	i	0.66	-1	2	-1.6	-7
Cc1ccc(NC(=O)c2ccncc2)cc1[N+](=O)[O-]	3.3	-2	-2.9	·	0.66	·	·	·	·
COc1cc(NC(=O)C2CCCN(c3ncccn3)C2)cc(OC)c1 (stereo not drawn)	-0.6	-1	-0.9	·	0.71	·	·	·	·
C#CCSC1=C(C#N)C(c2cccs2)C(C(=O)OCC)=C(C)N1 (stereo not drawn)	1.3	-4	6.5	·	0.73	·	·	·	-6
COc1ccccc1NC(=S)N(C(C)C)C(C)c1ccccn1 (stereo not drawn)	-1.0	2	0.0	i	0.7	17	-4	-0.4	7

An excerpt from above in order of their number in ALR inh, descending.
SMILES	ALR inh
COc1ccccc1NC(=S)N(C(C)C)C(C)c1ccccn1 (stereo not drawn)	7
O=C(c1cccc(NC2=NC3CS(=O)(=O)CC3S2)c1)N1CCN(c2ncccn2)CC1 (stereo not drawn)	-1
CNS(=O)(=O)c1ccc2c3c(cccc13)C(=O)N2C	-6

More compounds follow:
SMILES	UCH37 inh	B2AR ag	HNF4A DNA FP	FGF22 binding	E coli growth	Ecoli rRNA inh	Ecoli rRNA inh OD600	Ecoli rRNA inh RFP	ALR inh
COc1cccc(/C=N/n2c(=S)n(C)c3cc(C)c(C)cc32)c1OC	·	-11	-0.5	·	·	·	·	·	-24
CCCCc1c(C)c(C#N)c2nc3ccccc3n2c1NCCN(C)C	-75	3	-1.4	i	0.66	-2	3	1.5	·
COc1ccc(N(CC(=O)N2CCCCCC2)S(=O)(=O)c2c(C)[nH]c(=O)[nH]c2=O)cc1	5.4	-7	-3.1	i	0.68	9	7	0.4	·
COc1cc2nc(C3CCC3)n(NC(=O)C(OC(C)=O)c3ccccc3)c(=O)c2cc1OC (stereo not drawn)	2.4	0	2.3	·	0.67	·	·	·	-6
COc1cc(-c2nnc3sc(-c4ccncc4)nn23)cc(OC)c1OC	-1.4	-4	-3.4	i	0.68	7	3	-0.6	-3
CC(Nc1ccc(Cl)c(Cl)c1)C(=O)NN (stereo not drawn)	3.3	2	5.3	i	0.66	-26*	1.7*	2.6*	5
CC(NC(=O)CCC(=O)c1cccs1)c1ccccc1 (stereo not drawn)	2.2	-1	-2.8	·	0.65	8	11	3.4	1
O=C(NCc1cccnc1)C(=O)Nc1nc2ccccc2s1	1.8	0	2.0	·	0.68	11	9	3.6	-10
O=C1c2cccc3c([N+](=O)[O-])ccc(c23)C(=O)N1c1nccs1	-23	3	-29	·	0.74	·	·	·	17
O=C(NN=Cc1ccccc1OC(F)F)c1cccc(S(=O)(=O)N2CCCC2)c1	6.1	5	-1.3	i	0.72	-3	2	5.4	-7
Cc1nc2cc(NC(=O)CS(=O)(=O)c3ccccc3)ccc2s1	0.5	9	-0.1	i	0.61	-6	-4	-5.9	0
CC(C)(C)NC(=O)COc1ccc(CNc2ccc3[nH]c(=O)[nH]c3c2)cc1	-59	7	-0.8	·	0.69	·	·	·	·
C#CCOCCOCCOCCNc1nc(N2CCN(C(=O)[C@H](CCC(=O)O)n3cc(C(N)CC(C)C)nn3)CC2)nc(N2CCN(C(=O)[C@H](Cc3cc4ccccc4[nH]3)n3cc(C(N)CC(C)C)nn3)CC2)n1 (stereo partly drawn)	1.4	-4	1.5	·	·	·	·	·	-34
O=c1c2c([nH]n1-c1ccccc1)CCSC2	14	-5	0.8	i	0.65	0	8	-2.6	-3
OC(c1cccc(OCc2ccccc2)c1)c1nnc(-c2ccccc2)o1 (stereo not drawn)	2.2	-10	1.7	·	0.66	·	·	·	-4
Cc1cc(Nc2ccc(C(=O)O)cc2)nc(N)n1	-0.5	-5	-0.1	i	0.66	11	5	0.1	3
O=C(COC(=O)c1ccc(Cl)nc1)Nc1nnc(-c2ccccc2)o1	·	9	-0.5	i	·	-34	-48	-4.0	6
CCOC(=O)c1ccc(NC(=O)c2nc[nH]c2C(=O)NC[C@@H](C)O)cc1	·	·	-0.3	i	·	-8	-8	-4.9	·
CC(C)(C)c1cn(-c2ccccc2)c(=S)[nH]1	-1.2	3	1.6	·	0.67	·	·	·	?
CCCOc1ccc(/C=C/C(=O)Nc2ccc([N+](=O)[O-])cc2C)cc1OC	6.3	-2	2.3	·	0.65	·	·	·	-5
CSC[C@H](NC(=O)COc1cc2c(c3oc(=O)c(C)c(C)c13)CCC(C)(C)O2)C(=O)O	i	-11	1.3	i	0.62	-2	3	1.5	·
O=C(O)c1cc(S(=O)(=O)N(Cc2ccccc2)c2ccccc2)ccc1Cl	5.9	4	-0.6	i	0.68	-22	-24	-3.3	8
COc1ccc(N2CCN(C(=O)c3ccc4c(Cl)c5c(nc4c3)CCCC5)CC2)cc1	1.7	5	6.5	i	0.68	-2	-17	1.6	·
CCc1ccc(C(=O)c2cncc(Br)c2)cc1	0.9	-3	-3.0	·	0.66	·	·	·	·
O=C1c2ccccc2C(=O)N1CCOc1ccc(F)cc1	5.9	-8	-2.2	i	0.69	-9	-4	-3.3	-3
Cc1cccc(NC(=O)CN(C)S(=O)(=O)c2cccc3cccnc23)c1C	2.2	0	-0.1	i	0.66	-16	-11	-5.4	4
CCC(=O)N(Cc1cc2cc(OC)ccc2[nH]c1=O)c1cc(C)ccc1C	-59	0	1.2	·	0.69	·	·	·	-28
CC(C)(C)c1ccc(-c2nc3n(c(=O)c2C#N)CCS3)cc1	-0.7	-14	1.1	i	0.7	7	20	-1.2	-9
COC(=O)C1=C(C)N(c2ccc(C)cc2)/C(=C/c2ccc(O)cc2)C1=O	1.8	5	-0.3	i	0.72	23	11	4.0	-1
COC(=O)c1c(NC(=O)CN2CCCc3ccccc32)sc(C)c1C	2.2	0	0.9	i	0.73	-5	2	0.5	2
CC(=O)NC12CC3CC(C1)CC(C(=O)OCC(=O)c1cc(C)n(C)c1C)(C3)C2	0.8	2	0.5	i	0.72	·	·	·	12
COc1c(C(=O)NNC(=O)c2ccccc2)csc1Br	3.3	-3	4.1	i	0.72	-2	9	0.3	1
O=C(c1cnn(C(=O)c2ccco2)c1)c1cc(Cl)cc(Cl)c1O	6.3	13	14	i	0.68	-25*	-19*	-4.8*	56
CCCCc1cc(=O)oc2cc(OC3CCCCC3=O)ccc12 (stereo not drawn)	-14	-8	2.9	i	0.67	17	14	-5.1	-2
CCCCc1ccc(NC(=O)COC(=O)c2ccc3ncsc3c2)cc1	·	·	-0.6	i	·	1	5	3.0	·
Cc1occc1C(=O)NCCc1ccc(Cl)cc1	-0.5	3	-0.4	·	0.71	·	·	·	96*
COc1ccc(N2CC(C(=O)N[C@H](C(=O)NC3CCCCC3)C(C)C)CC2=O)cc1 (stereo partly drawn)	1.9	-6	-3.5	i	0.71	13	10	2.2	-6
CN(CC(=O)Nc1ccccc1Br)C(=O)CCC1CCCC1	-2.6	-8	6.1	i	0.69	1	-4	-0.1	-14
COc1ccc(-c2c(C)c3ccc(O)cc3oc2=O)cc1	·	3	9.2	i	·	-17	-29	-3.8	·
Cc1ccc(C)c(NS(=O)(=O)c2cc(C(=O)N3CCc4ccccc4C3)ccc2Cl)c1	2.7	-4	-1.2	i	0.72	-18	-16	1.3	·

Random excerpt: 4 records from the list, in no set order.
SMILES	UCH37 inh	B2AR ag	HNF4A DNA FP	FGF22 binding	E coli growth	Ecoli rRNA inh	Ecoli rRNA inh OD600	Ecoli rRNA inh RFP	ALR inh
CC(C)(C)NC(=O)COc1ccc(CNc2ccc3[nH]c(=O)[nH]c3c2)cc1	-59	7	-0.8	·	0.69	·	·	·	·
CC(Nc1ccc(Cl)c(Cl)c1)C(=O)NN (stereo not drawn)	3.3	2	5.3	i	0.66	-26*	1.7*	2.6*	5
S=C(Nc1ccc(Cl)cc1)N1CCCCC1	2.7	2	0.1	·	0.67	·	·	·	-3
CC(C)C(=O)NCCc1nc2ccccc2n1CCc1ccccc1	3.0	-8	-0.5	i	0.65	-5	-8	2.1	-3
